VDR inhibitor: vitamin D3 receptor (human) inhibition; P11473; 400,000 tested, 0.93% active; Potency, µM, for inactives: max response, negative = inhibition, most hits filed as inhibitors; VDR-SRC2-3 peptide fluorescence polarization, 2 h; active = well fitted inhibition curve with a large enough effect; inconclusive = small, poorly fitted or top-dose-only effect, or another doubt; inactive = no such curve, though single readings can be large or run the other way; note: series mostly up to about 120 µM
Target sequence (P11473 whole entry, looked up): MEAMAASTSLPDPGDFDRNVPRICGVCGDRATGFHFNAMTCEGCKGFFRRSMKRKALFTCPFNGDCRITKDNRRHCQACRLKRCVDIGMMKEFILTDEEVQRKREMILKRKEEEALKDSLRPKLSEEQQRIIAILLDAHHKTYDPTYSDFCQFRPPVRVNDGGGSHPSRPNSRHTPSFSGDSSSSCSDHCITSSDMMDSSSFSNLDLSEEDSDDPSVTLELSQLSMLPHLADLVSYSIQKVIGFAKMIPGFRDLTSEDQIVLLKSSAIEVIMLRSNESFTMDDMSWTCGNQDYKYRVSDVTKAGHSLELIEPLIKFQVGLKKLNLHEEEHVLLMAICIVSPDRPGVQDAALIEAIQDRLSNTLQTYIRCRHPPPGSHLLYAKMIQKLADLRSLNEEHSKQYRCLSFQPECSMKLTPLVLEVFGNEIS
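Two reagent solutions held at 4 deg C in the dark were dispensed, compounds pinned at 23 nl, and the mixture incubated 2 h at room temperature. Read-out: fluorescence polarization of VDR–SRC2-3 peptide binding.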
Starred values were filed as active, the others as inactive; ? = inconclusive; & = joins results of further samples. % is set by controls: 0 for no effect and ±100 for the full control effect; potency is the fitted concentration of half-maximal effect. These rows are one share of the data (hit frequency here may not be typical).

SMILES	VDR inhibitor
O=C(COC(=O)c1ccc(O)cc1)NC(c1ccccc1)c1ccccc1	-4%
C1CC(=NN=C2CCSCC2)CCS1	4%
c1ccc(CNC23CC4CC(CC(C4)C2)C3)nc1	2%
Cc1cc(Cl)c(S(=O)(=O)N2CCSCC2)cc1OCC(N)=O	8%
Cc1cc(S(=O)(=O)N2CCOCC2)ccc1OCC(=O)N1CCC(C(N)=O)CC1	-2%
CCCCNC(=O)c1onc(CSc2cc(C)ccc2C)c1C(=O)O	-4%
CCOCCn1c(SC)nc2c1c(=O)[nH]c(=O)n2C	-17%
CCC1=NN(C(=O)Cc2ccc([N+](=O)[O-])cc2)C(O)(C(F)(F)F)C1 (centres undefined)	-13%
COc1ccc(CNC(=O)[C@@H]2CC=C[C@@H]3CCN(C4CCCCC4)C(=O)[C@@H]32)cc1	-9%
O=C(NCCc1ccccc1)c1cnc2sccn2c1=O	-6%
C/C=N/N(c1ccccc1)c1ccccc1	1%
CCOC(=O)C1=C(C)N=C2SC(C(=O)OC)=CC(=O)N2C1c1ccc(F)cc1 (centres undefined)	22µM*
COc1ccc(C[C@H]2CN3C(=NC[C@@H]3C(C)C)N2C[C@H](C)NC(=O)c2ccc(C)c(Br)c2)cc1	?
CCN1CCN(C(=O)c2cc(=O)c3cc(C)ccc3o2)CC1	-6%
COc1ccc(NC(=O)N2CCCCCC2)c(OC)c1	3%
COc1ccc(CC(=O)NCc2ccc3c(c2)CCN3C(=O)c2cccc(C)c2)cc1	13%
CCOC(=O)c1c(C)[nH]c(C)c1C(=O)COC(=O)C1CC(=O)N(CCc2ccccc2)C1 (centres undefined)	-2%
CC(C)C(=O)Nc1ccc(NC(=O)c2cccnc2)cn1	4%
O=C(COC(=O)Cc1ccsc1)NCC1CCCCC1	4%
S=C(NCc1ccco1)N1CCC(c2nc3ccccc3o2)CC1	-8%
CCOc1ccc(CNS(=O)(=O)c2ccc(-c3ccc(=O)[nH]n3)o2)cc1OC	-2%
Cc1cc(C(=O)NC2=NCCS2)c2ccccc2n1	-6%
Brc1c(Br)c(Br)c2[nH]cnc2c1Br	5%&-1%
COc1ccccc1C(=O)N(CCC1CCCN1C)c1nc2ccccc2s1 (centres undefined)	2%
CCCCCCn1c(NCC)nc2c1c(=O)[nH]c(=O)n2C	8%
SMILES	VDR inhibitor
CCCSC1=N/C(=C/c2ccsc2)C(=O)N1c1ccccc1	18%
Cc1ccc(C2N(c3ccc(Cl)c(Cl)c3)C(=O)C3CCCN32)o1 (centres undefined)	8%
Cc1ccc(CCNC(=O)Cn2nc(C)c3c(C)n(-c4ccc(C)cc4)nc3c2=O)cc1	-2%
O=C(CN1CCCN(Cc2ccc(Cl)cc2)S1(=O)=O)Nc1ccccc1F	7%
COc1ccccc1CNS(=O)(=O)c1ccc2c(c1)CC(=O)N2C	-1%&-4%
CC(=O)c1ccc(OCC(=O)NCC2(N3CCCCC3)CCCCC2)cc1	-5%
CCc1ccc(NC(=O)C2CCN(c3nn4cc(-c5ccc(OC)cc5)nc4s3)CC2)cc1	-3%
O=C(O)CN(CC(=O)O)Cc1cc2c(-c3ccccc3C(=O)O)c3cc(CN(CC(=O)O)CC(=O)O)c(=O)cc-3oc2cc1O	?
Cc1oc(=O)c(NC(=O)c2ccc(Cl)cc2)cc1C(=O)c1ccccc1	25µM*
COc1cccc(C(=O)N2CCN(C(=O)COc3ccc4ccccc4c3)CC2)c1	-18%
Cc1cccc(NC(=O)CN2C(=O)S/C(=C\c3ccc(-c4cccc(C(=O)O)c4C)o3)C2=O)c1	14%
Cc1cc(=O)oc2cc(OCC(=O)NCCN3CCOCC3)ccc12	5%
O=C(Nc1ccc(N2CCN(C(=O)c3cccs3)CC2)cc1)c1ccco1	9%
CC(=O)Nc1c(C)ccc(CNC(=O)COc2ccc(F)cc2)c1C	7%
CC1(C)NC(=O)N(CC(O)COc2ccc(-c3ccc(C#N)cc3)cc2)C1=O (centres undefined)	-1%
Cc1ccccc1S(=O)(=O)Nc1nc2ccccc2nc1NCCO	-5%
Nc1ccc(C(=O)OCCCc2nc3ccccc3[nH]2)cc1	-5%
Cc1ccc(C)c(OCC(=O)NC2CCCCCC2)c1	9%
COc1ccc(C2CC(=O)NC3=C2C(=O)CCC3)cc1Cl (centres undefined)	20%
CS(=O)(=O)N1CCC(Oc2ccccc2C(=O)N2CCC[C@H]2CO)CC1	-6%
CC(C)CCNC(=O)c1ccccc1NC(=O)C1=CSCCO1	-1%
C=CCNc1cc(C)oc(=O)c1C(=O)CC	-2%
COc1ccccc1NC(=O)COC(=O)c1ccc(N2CCCC2=O)cc1	12%
COc1ccc(OC)c(NC(=O)c2ccc(OCC(=O)N3CCOCC3)c(OC)c2)c1	-2%
CC(C)CN(C(=O)CN1CCN(c2ccc(O)cc2)CC1)c1c(N)n(CC(C)C)c(=O)[nH]c1=O	-9%
SMILES	VDR inhibitor
COc1ccc(NC(=S)N2CCN(C(=O)C3CCCO3)CC2)c(OC)c1 (centres undefined)	9%
COc1cccc(CNc2ccccc2O)c1OCc1ccccc1F	-4%
O=C(CCn1cncn1)N1CCCC(N2CCN(c3cccc(C(F)(F)F)c3)CC2)C1 (centres undefined)	-4%
O=C(N/N=C\c1ccncc1)c1ccc(Br)s1	-11%
CC[C@](C)(O)c1cc2ccccc2c(=O)o1	-3%
c1ccc(CN2CCOCCOCCOCCOCC2)cc1	-8%
CCOC(=O)N1CCN(c2ccc(Cl)c(Cl)c2)CC1	-12%
Cc1cc(=O)n(CC(=O)NCc2ccc(OC(C)C)cc2)c2c1c(C)nn2-c1cccc(F)c1	8%
Cc1cccc(NC(=O)/C=C/c2ccc3c(c2)OCO3)n1	-6%
Cc1cccc(CNC(=O)C2CCC(=O)N(C3CCCC3)C2)c1 (centres undefined)	-2%
O=C(c1ccc(C(F)(F)F)n(Cc2ccc(Cl)cc2)c1=O)N1CCOCC1	?
OC[C@@H]1[C@@H](c2ccccc2)C(c2ccc(F)cc2)=NN1c1ccccc1	-12%&-27%
O=C(c1cnn(C(=O)c2ccco2)c1)c1cc(F)ccc1O	-7%
O=C(CSc1ncnc2ccccc12)c1ccco1	?
Cc1ccc(NC(=S)N2CCCC2)cc1	-20%
COc1ccccc1NC(=O)C(C)OC(=O)C(C)SCC(=O)Nc1ccc(C)cc1 (centres undefined)	-17%
COc1ccc2c(c1)C(c1ccccc1C)CC(=O)O2 (centres undefined)	-3%
C[C@H](CO)N1C[C@H](C)[C@@H](CN(C)C(=O)NC2CCCCC2)Oc2ccc(NC(=O)C3CCCCC3)cc2C1=O	-10%
COc1cc(/C=C2\SC(=S)N(NC(=O)c3ccc(O)cc3)C2=O)ccc1O	-16%
CCCNC(=O)c1ccccc1NC(=O)c1ccc2c(c1)NC(=O)C(C)S2 (centres undefined)	-6%
Cc1ccc(-n2nc3c(c2NC(=O)c2c(-c4ccccc4Cl)noc2C)CS(=O)(=O)C3)c(C)c1	-7%
CCN(CC(=O)NCc1cccs1)C(=O)c1cc(Br)ccc1O	?
Cc1cc(C)n(CC(C)NC(=O)CCc2nnc(CCc3ccccc3)o2)n1 (centres undefined)	13%
CN(C(=O)CSc1ncn[nH]1)C1(C#N)CCCCC1	-15%
Cc1ccc(C(=O)N2CCN(c3ccccn3)CC2)cc1[N+](=O)[O-]	-8%

In another format: results already given
VDR inhibitor	Compound
-4%	COc1cccc(CNc2ccccc2O)c1OCc1ccccc1F
-4%	O=C(CCn1cncn1)N1CCCC(N2CCN(c3cccc(C(F)(F)F)c3)CC2)C1 (centres undefined)

An excerpt of these results, as labelled records.
CCN(CC(=O)NCc1cccs1)C(=O)c1cc(Br)ccc1O
  VDR inhibitor: ?
CCOC(=O)N1CCN(c2ccc(Cl)c(Cl)c2)CC1
  VDR inhibitor: -12%
COc1cc(/C=C2\SC(=S)N(NC(=O)c3ccc(O)cc3)C2=O)ccc1O
  VDR inhibitor: -16%
Cc1cccc(CNC(=O)C2CCC(=O)N(C3CCCC3)C2)c1 (centres undefined)
  VDR inhibitor: -2%

Part of the list above, with bars between the fields.
SMILES | VDR inhibitor
Cc1cccc(NC(=O)CN2C(=O)S/C(=C\c3ccc(-c4cccc(C(=O)O)c4C)o3)C2=O)c1 | 14%
COc1cc(/C=C2\SC(=S)N(NC(=O)c3ccc(O)cc3)C2=O)ccc1O | -16%
COc1ccc2c(c1)C(c1ccccc1C)CC(=O)O2 (centres undefined) | -3%
CC(=O)Nc1c(C)ccc(CNC(=O)COc2ccc(F)cc2)c1C | 7%

Next structures:
SMILES	VDR inhibitor
COc1ccc(CCNC(=O)Cn2cccc2C(=O)c2ccccc2)c(OC)c1	4%
COc1ccc(-c2c3c(=O)n(C)c(=O)n(C)c3c3c(-c4ccc(C)cc4)nc4ccccc4n23)cc1	?
CC(=O)c1cccc(Nc2nc(-c3sc(C)nc3C)cs2)c1	1%
CCCC(=O)Nc1ccc(NC(=O)CCc2ccccc2)cn1	-17%
COC(=O)c1sccc1S(=O)(=O)N(CC(=O)NCc1ccc(C)cc1)c1ccccc1	20%
NS(=O)(=O)c1ccc(CCNC(=O)C(c2ccccc2)c2ccccc2)cc1	-1%
C=C1[C@@H]2CC[C@H](C2)C1(C)C	-2%
CC1CCCC(NC(=O)COC(=O)/C=C/c2ccc([N+](=O)[O-])cc2)C1C (centres undefined)	-17%
O=C(c1nn2c(C(F)(F)F)cc(-c3ccco3)nc2c1Br)N1CCCc2ccccc21	5%
CCn1c(=O)cc(OCC(=O)Nc2ccccc2Cl)c2ccccc21	10%
CCOc1ccc(CNC(=S)N/N=C/c2cccnc2)cc1	-12%
COc1ccc(Br)cc1CNC(=O)C1CCN(c2nnc(-n3cccc3CNc3ccc(C)cc3)s2)CC1	-7%
O=C(COC(=O)Cn1[nH]c(=O)c2ccccc2c1=O)Nc1c(Cl)cccc1C(F)(F)F	-1%
COc1ccc(N2CCc3c(C)nc4c(OC)cc(OC)cc4c32)cc1	7%
COCCCNC(=O)c1cc2c(=O)n(C)c3ccccc3c2n1C	-13%
CCC(=O)N/C(=N/c1nc(C)cc(C)n1)Nc1ccccc1	-4%
O=C(Nc1ccc2ncccc2c1)c1ccccc1	?
CC(C)Cn1cc(F)c(=O)n(CC(C)C)c1=O	-6%
COc1ccc(OCC(=O)Nc2ccc(S(=O)(=O)N3CCCC3)cc2)cc1	6%
COc1cccc2c1Oc1ncccc1N(C(=O)CCC(=O)NCc1ccccc1Cl)C2	-2%&8%
CCc1ccc(C(=O)CSc2nc(C)cc(=O)[nH]2)cc1	11%
COc1ccc(NC(=O)/C=C/c2ccc(OC(F)F)cc2)cn1	-10%
Cc1ccc(S(=O)(=O)c2nnn3c2nc(N2CCC(C(N)=O)CC2)c2ccccc23)cc1	8%
CCC(=O)N1CCc2cc(S(=O)(=O)NC(Cc3ccccc3)C(=O)NCc3ccc(F)cc3)ccc21 (centres undefined)	-10%
CCn1c(/C=C/c2ccc(F)cc2)nc2ccccc2c1=O	?
SMILES	VDR inhibitor
COc1ccc2[nH]c3c(N4CCc5ccccc5C4)ncnc3c2c1	-24%
Cc1cc(C)cc(N(CC(=O)N2CC=C(c3ccccc3)CC2)S(=O)(=O)c2c(C)noc2C)c1	-3%
CCOC(=O)C1CCCN(C(=O)c2ccc(-c3ccccc3Cl)o2)C1 (centres undefined)	12%
O=C(NCCc1ccccc1)c1ccc(-c2ccc(F)cc2)o1	-7%
CC1CCN(C(=O)CSc2ccc(-c3cccc([N+](=O)[O-])c3)nn2)CC1	7%
CC(C)(C)C(=O)NC1CC2CCCC(C1)N2C(=O)Nc1ccccc1Cl (centres undefined)	-2%
Cc1cc([N+](=O)[O-])ccc1NCc1ccccc1	-7%
CCOc1ccccc1NC(=O)C(C)n1nnc2sc3c(c2c1=O)CCCC3 (centres undefined)	3%
CCNc1ncc2nc(-c3ccc(Cl)cc3)c(=O)n(C3CC3)c2n1	6%
COc1nnc(-c2ccc(C)c(S(=O)(=O)NCCO)c2)c2ccccc12	-3%
Cc1cccc(NC(=O)NCCN2CCCCC2)c1	-12%
O=C(c1ccc(N2CCOCC2)c([N+](=O)[O-])c1)N1CCCC(C(F)(F)F)C1 (centres undefined)	-15%
COc1ccc(/C=C2\N=C(SC)NC2=O)cc1	-7%
O=C(O)c1ccc2c(=O)n3c(nc2c1)/C(=C/c1cccc(Cl)c1Cl)CC3	11%
CCOC(=O)c1ccc(NC(=O)CSc2nnc(CNc3ccc(C)cc3)n2C)cc1	6%
Cc1cc(C)c2c(CC(=O)Nc3nnc(C(C)C)s3)coc2c1	6%
COC(=O)c1ccc(COc2ccc(/C=N/NC(=O)C(=O)Nc3ccc(OC)cc3)cc2OC)o1	14%
CC(C)(C)NS(=O)(=O)c1ccc(NS(=O)(=O)c2ccc(F)cc2)cc1	13%
CCCN(CC(=O)Nc1ccccc1C)C(=O)c1cn2ccccc2n1	0%
COc1ccc(Br)cc1/C=C/C(=O)Nc1ccc2ccccc2c1	-4%
CCC(C(=O)C(C)C(O)C(C)CCc1ccc(C)c(O)c1C(=O)O)C1OC(CC)(C2CC[C@@](O)(CC)C(C)O2)CC1C (some centres undefined)	-17%
Cc1ccc([N+](=O)[O-])cc1S(=O)(=O)Nc1cccc(-c2ccc(N3CCCC3)nn2)c1	-23%
CCn1cc(CN2CCCC(C(=O)c3ccc(-c4ccccc4)cc3)C2)cn1 (centres undefined)	-4%
O=C(C[n+]1ccccc1)N/N=C/c1ccc(Br)cc1	7%
O=C(NCCN1CCOCC1)c1cc2cc(Br)ccc2oc1=O	1%
CCn1nc(C)c(CNC(=O)CCc2nnc(Cc3c[nH]c4ccccc34)o2)c1C	-17%
CC(C)Cc1cc(C(=O)N2CCC(N3CCC(C(=O)NC4CC4)CC3)CC2)n[nH]1	12%
Clc1cccc(Oc2cnc3ccccc3n2)c1	-8%
Cc1cccc(C(=O)N2CCC(=O)N([C@H](COCc3ccc(Cl)cc3)Cc3ccccc3)CC2)c1	-19%
CC(C)(C)C1CCc2c(sc(NC(=O)c3ccc(Cl)cc3)c2C(=O)NCc2ccco2)C1 (centres undefined)	-7%

Compound activity (PubChem)
